VDR inhibitor: vitamin D3 receptor (human) inhibition. actives 0.93% (n = 400,000). VDR-SRC2-3 peptide fluorescence polarization, 2 h. Potency, µM, inactives show max response, negative = inhibition, actives largely listed as inhibitors. P11473; active = well fitted inhibition curve with a large enough effect; inconclusive = small, poorly fitted or top-dose-only effect, or another doubt; inactive = no such curve, though single readings can be large or run the other way; also: series mostly up to about 120 µM
Target sequence (P11473 whole entry, looked up): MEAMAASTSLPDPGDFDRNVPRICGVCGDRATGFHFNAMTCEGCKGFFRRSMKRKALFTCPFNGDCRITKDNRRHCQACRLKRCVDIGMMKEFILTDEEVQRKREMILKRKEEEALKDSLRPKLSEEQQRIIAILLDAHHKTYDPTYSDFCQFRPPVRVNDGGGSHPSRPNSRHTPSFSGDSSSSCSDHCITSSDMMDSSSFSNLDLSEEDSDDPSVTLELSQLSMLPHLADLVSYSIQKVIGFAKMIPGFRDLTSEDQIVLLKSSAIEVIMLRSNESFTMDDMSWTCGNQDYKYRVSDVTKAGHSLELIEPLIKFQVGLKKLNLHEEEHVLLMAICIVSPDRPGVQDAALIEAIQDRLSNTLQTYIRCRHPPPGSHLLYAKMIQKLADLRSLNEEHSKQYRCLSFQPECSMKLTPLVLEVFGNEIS
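Inhibition of the VDR/SRC2-3 peptide interaction is quantified by fluorescence polarization. Compounds (23 nl, pintool) incubate with the reagents for 2 hours at ambient room temperature.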
An asterisk follows results filed as active; ? = inconclusive; & = joins results of further samples. % is scaled to controls: 0 for no effect and ±100 for the full control effect; potency is read from the fitted curve at half-maximal effect. Some of the compounds tested; count on the stated rates, not on these rows.

VDR inhibitor	SMILES
-11%	CC(=O)c1cccc(NC(=O)C(OC(=O)c2cccc(S(=O)(=O)N(C)c3ccccc3)c2)c2ccccc2)c1 (stereo unspecified)
-5%	Cc1cc(NC(=O)CSc2nnc(CNC(=O)c3ccc(C(C)(C)C)cc3)o2)no1
9%	CC(=O)c1c(C)[nH]c(C(=O)Nc2cc(F)ccc2C)c1C
2%	Cc1c(-c2nsc(NC(=O)c3cccc(Cl)c3)n2)nnn1-c1ccccc1C(F)(F)F
-17%	Cc1noc(NS(=O)(=O)c2ccc(NC(=O)c3cc(-c4ccccc4Cl)nc4ccccc34)cc2)c1C
-1%	C=CC[C@H](N)C(=O)O
-17%	Cc1cc(C)c2c(n1)sc1c(=O)n(-c3ccccc3C(F)(F)F)nnc12
-24%	O=C1C/C(=C/NCc2ccccc2)C(=O)N1
4%	COC(=O)C[C@H]1c2cc(F)ccc2S(=O)(=O)N1c1ccccc1
-8%	Cc1ccc(S(=O)(=O)Nc2ccc3nc(C)sc3c2)c(C)c1
-3%&5%	CCOc1ccccc1C(=O)N(Cc1sccc1C)C1CCS(=O)(=O)C1 (stereo unspecified)
-2%	Cc1ccc(S(=O)(=O)N(C)C)cc1NC(=O)C(C)OC(=O)C1CCCC1 (stereo unspecified)
8%	CC1(C)C(=O)Nc2ccccc2N1C(=O)COC(=O)Cc1ccccc1F
-14%	CNC(=S)N1CCN(c2nc(-c3ccc(Cl)cc3)cs2)CC1
6%	C=CCn1c(SCc2nc3ccccc3[nH]2)nnc1-c1ccccn1
-13%	CCOc1ccc(-c2nnc(NC(=O)CCCOc3cccc(C)c3)o2)cc1
11%	C/C=C(\C)C(=O)OC(C)(C)[C@@H]1Cc2cc3ccc(=O)oc3cc2O1
10%	Cc1ccc(N=Nc2c(=O)[nH]n3c(=O)cc(C)[nH]c23)cc1
-4%	Cc1ccc(N(C(=O)CNC(=O)c2ccco2)C(C(=O)NC2CCCC2)c2ccncc2)cc1C (stereo unspecified)
-16%	O=C(Nc1ccc(F)c(F)c1)c1ccco1
2%	CCOC(=O)/C(=N\Nc1ncnc2ccccc12)c1ccc(OC)cc1
2%	CC1CCCCN1C(=O)c1c([N+](=O)[O-])cnn1C (stereo unspecified)
-12%	O=c1c(-c2ccccc2)nc2cnc(N3CCOCC3)nc2n1CCc1ccccc1
-27%	CC1=C(C)C(=O)N(c2ccc(C(=O)O)cc2)C1=O
8%	CC(NC(=O)c1ccc(Br)cc1Br)c1ccccc1 (stereo unspecified)
4%	CC(C)N1C(=O)c2ccccc2N(Cc2ccccc2)S1(=O)=O
1%	CCc1ccc(C(=O)c2cn(CC(=O)Nc3ccc4c(c3)OCO4)c3ccc(OC)cc3c2=O)cc1
3%	Cc1c(C(=O)N2CCCCCC2)c(S(=O)(=O)Nc2ccc(F)cc2)c(C)n1C
-3%	CCCCN(C(=O)/C=C/c1ccccc1)C1CCS(=O)(=O)C1 (stereo unspecified)
-8%	Cc1cc2oc(=O)cc(C)c2cc1NC(=O)CCC(=O)O
-7%	CCc1cccc(NC(=O)CSCc2cc(=O)[nH][nH]2)c1
10%	Cc1ccc(S(=O)(=O)N2CCCC(C(=O)NCC3COCCO3)C2)cc1 (stereo unspecified)
23%	Cn1cc(S(=O)(=O)N2CCN(c3cccc(Cl)c3)CC2)c(=O)n(C)c1=O
4%	COc1ccc(NC(=O)c2c(C(F)(F)F)nn(C)c2SCc2ccccc2)cc1
4%	CCOC(=O)c1c(NC(=O)COc2ccc(Br)cc2)sc2c1CCCC2
7%	COC(=O)c1ccc(CN2CCC(Oc3cccc(C(=O)N4CCOCC4)c3)CC2)cc1
-11%	CCCN1C(=O)C(=O)N(CC(=O)c2cc(C)n(C3CC3)c2C)C1=O
10%	CCCOc1ccc(CC(=O)NCc2ccco2)cc1OC
7%	CC(C)=CC(=O)OCC(=O)Nc1ccc(Cl)cc1
0%	O=C(c1cc[n+]([O-])cc1)N1CCc2c([nH]c3ccccc23)C1c1ccccc1Cl (stereo unspecified)
12%	CC(C)(C)c1ccc(C(=O)N/N=C/c2ccccn2)cc1
3%	C[C@H](NC(=O)c1nc[nH]c1C(=O)N[C@@H](Cc1ccccc1)C(=O)OC(C)(C)C)c1ccccc1
-8%	COc1ccc(CN(C)CC(=O)c2c(N)n(Cc3ccccc3)c(=O)n(C)c2=O)c(OC)c1
?	O=C(NCc1ccco1)C1Cc2ccccc2CN1S(=O)(=O)c1ccccc1F (stereo unspecified)
11%	Cc1cc(C)cc(-n2ncc3c2CCCC3NC(=O)CN2CCCCC2=O)c1 (stereo unspecified)
-13%	CS(=O)(=O)N(Cc1ccccc1)c1ccc(C(=O)Nc2ccc(Cl)cc2)cc1
-19%	Cc1cccc(OCC(=O)NC(=S)Nc2ccccc2N2CCOCC2)c1
-3%	COc1ccc(NC(=O)c2ccco2)cc1NC(=O)C(C)Oc1ccc(Cl)cc1Cl (stereo unspecified)
-2%	Cc1nnc(SC(C)C(=O)N2CCc3ccccc32)s1 (stereo unspecified)
-8%	CCNc1nn2ccccc2c1/C=C(\C#N)C(=O)OCC
0%	CC1CC(C)CN(S(=O)(=O)c2ccc(Cl)cc2)C1 (stereo unspecified)
-2%	C=CCOc1ccc(CN(C)Cc2nc3cc(C(F)(F)F)ccc3c(=O)[nH]2)cc1
3%	Cn1c(=O)c(=O)n(C)c2cc(S(=O)(=O)N3CCC(N4CCCCC4)CC3)ccc21
-23%	COc1ccc(NC(=O)COc2ncnc3ccccc23)cc1S(=O)(=O)N1CCOCC1
11%	CCOc1ccc(-n2nnc3c(=O)n(CC(=O)Nc4cc(C)on4)cnc32)cc1
0%	CCOC(=O)c1nn(-c2ccc3c(c2)CCN3C(C)=O)cc1O
-12%	Cn1cc(CN(CCO)Cc2cccs2)c(-c2ccccc2F)n1
-7%	OCCNCCO
-1%	CCS(=O)(=O)n1nc(-c2ccc(C)cc2)nc1N
-20%	Cc1c(C=O)c2ccccn2c1C(=O)c1ccc(Cl)c([N+](=O)[O-])c1

3 entries from above, as tab-separated lines:
mol	VDR inhibitor
O=C(c1cc[n+]([O-])cc1)N1CCc2c([nH]c3ccccc23)C1c1ccccc1Cl (stereo unspecified)	0%
Cc1ccc(N(C(=O)CNC(=O)c2ccco2)C(C(=O)NC2CCCC2)c2ccncc2)cc1C (stereo unspecified)	-4%
OCCNCCO	-7%

Following part
VDR inhibitor	SMILES
8%	CC(=O)Nc1cccc(NC(=O)CSc2nnnn2Cc2ccccc2)c1
-6%	CCCCN(CC(=O)NC1CC1)S(=O)(=O)c1ccc(OCC)cc1
-12%	CC(=O)OCC(=O)C1(O)CCC2C3CCC4=CC(=O)CCC4(C)C3(F)C(O)CC21C (stereo unspecified)
-2%	Cc1nc(Nc2ccc(Cl)cc2)c2nnn(Cc3ccccc3)c2n1
-3%	Cc1nc(N2CCN(Cc3ccccc3)CC2)nc2c1CCC2
2%	COc1ccc2[nH]c(C(=O)N3CCC(Cc4ccccc4)CC3)cc2c1
-20%	O=C(COC(=O)/C=C/c1cccc(Br)c1)NCc1cccs1
-1%	O=C(Nc1ccccc1C(=O)N1CCCCC1)c1ccco1
16%	CCCC(=O)NCC1(N(C)C)CCCCC1
-5%	CCOc1ccc(-c2n[nH]c(C(=O)NN)c2C)cc1
-1%	COc1ccc(NC(=O)c2c(C)oc3ccc(O)c(CN4CCCC4)c23)cc1Cl
-3%	Cn1c(/C(C#N)=C(\O)c2ccc([N+](=O)[O-])s2)nc2ccccc21
13%	COc1ccc(S(=O)(=O)NCCOc2cccc3cccnc23)cc1OC
-3%	O=C1CSC(c2cccc([N+](=O)[O-])c2)N1C1CC2CCC1C2 (stereo unspecified)
18%	O=C(O)c1ccc(Cn2cc(Cl)cn2)cc1
-1%	O=C(CN1C(=O)NC2(CCCCCCC2)C1=O)Nc1ccc(Cl)cc1
-7%	CC(C)Oc1cccc(C(=O)C2CCCN(C(=O)c3cc(C4CC4)[nH]n3)C2)c1 (stereo unspecified)
11%	O=C(c1cc([N+](=O)[O-])ccc1N1CCCCC1)N1CCCC1
14%	CCCCCCCOc1ccc(OC(=O)c2ccncc2)cc1
1%	CC(C)(O)C#CC#CCN1CCOCC1
-12%	O=C(Cn1nc(Cc2cccnc2)c2ccccc2c1=O)NCCCN1CCCC1=O
-5%	O=C(O)c1cc([N+](=O)[O-])ccc1C(=O)Nc1cccc([N+](=O)[O-])c1
-13%	COCCCn1c(SCC(=O)N2CCCC(C)C2)nnc1-c1ccco1 (stereo unspecified)
17%	O=C(c1ccc2c(c1)OCO2)N1CCc2ccccc2C1
-1%	COc1cc(OC)cc(C(=O)Nn2cc(C(=O)Nc3ccccc3F)c3ccccc3c2=O)c1
2%	CCOC(=O)c1sc(NC(=O)C2CCCCC2)nc1C
-4%	CCN(CC)C(=O)Cn1cc(S(=O)(=O)CC(=O)NCc2ccc3c(c2)OCO3)c2ccccc21
-10%	O=C(Nc1ccc(C(F)(F)F)cc1)c1cccc(-n2cnnn2)c1
5%	CN(C)CCCn1c(-c2ccc(Cl)cc2)csc1=Nc1ccccc1
0%	O=C(NCc1ccccc1)C1CCC(=O)N(CCN2CCOCC2)C1 (stereo unspecified)

4 entries from above, arranged by their value in VDR inhibitor, high to low.
VDR inhibitor	SMILES
11%	O=C(c1cc([N+](=O)[O-])ccc1N1CCCCC1)N1CCCC1
2%	COc1ccc2[nH]c(C(=O)N3CCC(Cc4ccccc4)CC3)cc2c1
-1%	COc1cc(OC)cc(C(=O)Nn2cc(C(=O)Nc3ccccc3F)c3ccccc3c2=O)c1
-3%	Cn1c(/C(C#N)=C(\O)c2ccc([N+](=O)[O-])s2)nc2ccccc21

Returning to the listing, repeating the 4 entries before the break.
VDR inhibitor	SMILES
-4%	CCN(CC)C(=O)Cn1cc(S(=O)(=O)CC(=O)NCc2ccc3c(c2)OCO3)c2ccccc21
-10%	O=C(Nc1ccc(C(F)(F)F)cc1)c1cccc(-n2cnnn2)c1
5%	CN(C)CCCn1c(-c2ccc(Cl)cc2)csc1=Nc1ccccc1
0%	O=C(NCc1ccccc1)C1CCC(=O)N(CCN2CCOCC2)C1 (stereo unspecified)
-21%	Cc1ccc(CNC(=O)Cc2cn(C)c3ccccc23)cc1
-11%	COCCNC(=O)c1ccc2c(c1)N=C(C)c1cc(C)ccc1S2
14%	CCOC(=O)c1ccc(N2CCN(c3cc(C)ccc3C)CC2)c(NC(=O)Nc2ccccc2)c1
4%	O=c1c2ccccc2ncn1Cc1nc2ccccc2s1
-13%	Cc1cc(C)c2cc(C(c3nnnn3C3CCCC3)N3CCOCC3)c(=O)[nH]c2c1 (stereo unspecified)
-12%	COc1cc(C(=S)N(C)C)ccc1O
2%	O=C(CSc1nc2[nH]ncc2c(=O)n1-c1ccc(Cl)c(Cl)c1)NCc1ccccc1Cl
14%	COCCn1cc(C(=O)N2CCCC(C)C2)c2c3ccccc3n(C)c2c1=O (stereo unspecified)
-16%	Nc1ccc2c(c1)[nH]c(=O)c1ccccc12
12%	COc1ccc(NS(=O)(=O)c2ccc3ccccc3c2)c2ncccc12
-5%	CC(OC(=O)C1CCCC1)C(=O)Nc1ccc(S(N)(=O)=O)cc1 (stereo unspecified)
17%	CN(Cc1ccccc1)C(=O)CN(c1ccccc1Cl)S(C)(=O)=O
10%	O=C(NCCO)c1c(O)c2cccc3c2n(c1=O)CC3
-8%	COc1ccc2[nH]cc(CCNc3nc(-c4ccoc4)nc4ccccc34)c2c1
-11%	COC(=O)c1ccc(C23CC4(C2)[C@H](CN(CC2CCCCC2)[C@@H]4c2ccccc2)C3c2ccc(Cl)nc2)cc1 (stereo partly specified)
-1%	Cc1ccc2oc(=O)c3cc(C(=O)NCCCN4C(C)CCCC4C)sc3c2c1 (stereo unspecified)
-4%	COc1cccc(NC(=O)N(Cc2ccco2)C(C)c2cccs2)c1 (stereo unspecified)
9%	c1cnc(N2CCN(c3nc4ccccc4n4cnnc34)CC2)nc1
3%	O=C(CCn1[nH]c(=O)c2ccccc2c1=O)OC1CCCCC1
-5%	CCNc1nc(N)nc(Oc2ccc(C(=O)OC)cc2)n1
11%	CC[C@]1(C(=O)OC)[C@H]2C(=O)N(C)C(=O)[C@H]2[C@H]2CN=C(SCc3ccc(Cl)cc3)N21
-13%	Cc1cc(C)n(CC(C)NCc2cn[nH]c2-c2ccc(C)c(C)c2)n1 (stereo unspecified)
?	O=C1C=C(N2CCOCC2)c2ccccc2C1=O
-5%	C=CCOC(=O)/C(=C\c1ccccc1)NC(=O)c1ccco1
10%	O=C(CN(CC1CCCO1)C(=O)CNS(=O)(=O)c1ccc(Cl)cc1)NC1CCCC1 (stereo unspecified)
5%	CCc1nnc(NC(=O)CCC(=O)N2CCN(Cc3ccccc3)CC2)s1
-1%	CCOc1ccccc1NC(=O)C1CCN(S(=O)(=O)c2ccccc2)CC1
3%	COC(=O)c1ccc(CO/N=C/c2ccccc2OC)cc1
-12%	Cc1nc(-c2ccc(NC(=O)CC(C)C)cc2)cs1
-17%	OCC[C@@H]1C[C@@H](O)[C@H](O)[C@]2(OCCc3ccccc32)O1
8%	N#Cc1c(N)nc2c(c1N)CC(CO)O2 (stereo unspecified)
6%	Cc1nn(-c2ccc(C(=O)O)cc2)c(C)c1Cl
?	CC(C)CC(CO)N1CCN(C(=O)c2cccc(Cl)c2)CCC1=O (stereo unspecified)
-27%	O=C(O)/C=C/C(=O)Nc1ccc(N2CCOCC2)nc1N1CCOCC1
0%	CC1(C)C[C@H](O)[C@]2(CO)CC[C@]3(C)C(=CCC4[C@@]5(C)CC[C@H](O)C(C)(C)C5CC[C@]43C)[C@@H]2C1 (stereo partly specified)
0%	CC(=O)c1ccc(NC(=O)C(C)Nc2ccc(Cl)cc2)cc1 (stereo unspecified)
-12%	COc1cccc(COC(=O)Cc2ccc(S(=O)(=O)N3CCOCC3)s2)c1OC
